Bioassay records: PubChem, NMMLSC
Bead autofluor – compound fluorescence in toxin protease inhibitor counterscreen; compound autofluorescence counterscreen, microsphere flow cytometry; active compounds read high; fluorescence intensity (test concentration not listed); 3.1% of 360,000 active; AID 624483;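 active means at least 3 SD above the mean of all compounds, about 16000 in these data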;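 further: 100 nL of 1 mM stock went into each well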
Active calls of the source: *.

| Structure | Bead autofluor |
| --- | --- |
| COc1ccc(C(c2nnnn2C2CCCC2)N2CCN(C/C=C/c3ccccc3)CC2)cc1 (centres undefined) | 5908 |
| COc1ccc(CCNC(=O)CSc2nc3c(sc(=S)n3-c3ccccc3)c(=O)[nH]2)cc1OC | 3496 |
| Cc1cc2nc(-c3ccc(F)cc3)c(Cc3ccccc3)n2c(C)c1Br | 5770 |
| O=C(NCc1ccccc1)c1cc(C2COCCN2S(=O)(=O)c2cccs2)on1 (centres undefined) | 2918 |
| O=C(Nc1cccc2cccnc12)c1csc(COCCO)n1 | 3698 |
| CCCCC1Cc2[nH][nH]c(=O)c2C(c2ccc(F)cc2)O1 (centres undefined) | 6120 |
| CN(C(=O)NC1CCCCC1)[C@H]1C[C@H]2c3[nH]c4ccccc4c3CCN2C(=O)[C@H]1CO | 3014 |
| CC(C)(C)NC(=O)C1(C)CCC(=O)N1CC(F)(F)F (centres undefined) | 4176 |
| C=Cn1cc(CNC[C@H]2O[C@@H](n3cnc4c(=O)[nH]c(N)nc43)[C@H](O)[C@@H]2O)c(C)n1 | 5863 |
| CCOC(=O)C1=CCC(c2cccc(Cl)c2)N(S(=O)(=O)c2ccc(C)cc2)C1 (centres undefined) | 6420 |
| COc1cccc(/C=C/c2nc(S(=O)(=O)c3ccccc3)c(N3CCC(C(N)=O)CC3)o2)c1 | 3469 |
| Cc1ccc([C@H]2C[C@@H](n3cc(C4CC4)nn3)[C@H](O)CN2C(=O)c2cccs2)cc1 | 2702 |
| CCOC(=O)c1c(NC(=O)COC(=O)c2cccc([N+](=O)[O-])c2)sc(C(=O)N(C)C)c1C | 3990 |
| COc1ccc(CN2C(=O)c3ccccc3C2c2nnnn2Cc2ccccc2)cc1OC (centres undefined) | 5622 |
| C[C@H]1CN([C@@H](C)CO)S(=O)(=O)c2ccc(C#CC(C)(C)O)cc2O[C@H]1CN(C)Cc1ccccc1 | 3352 |
| O=C(Nc1ccc(S(=O)(=O)Nc2nccs2)cc1)c1ccncc1 | 6037 |
| COc1ccc(NC(=O)C[C@H]2C(=O)N(CCc3ccccc3)C[C@@H]2CSC)cc1 | 3013 |
| CC1(c2ccccc2)NC(=O)N(CC(=O)N2CCc3ccccc32)C1=O (centres undefined) | 4111 |
| O=C(NCC1CC1)c1ccc2sc([C@H]3C[C@H](O)[C@@H](CO)O3)nc2c1 | 3052 |
| Cc1ccc(O)c(Cc2cc(C)cc(Cc3cc(C)ccc3O)c2O)c1 | 3741 |
| COc1ccc(NC(=O)O[C@@H](C)[C@@H]2CN3CCc4c([nH]c5ccc(-c6ccc(OC)cc6)cc45)[C@@H]3C[C@@H]2N(C)C(=O)Nc2ccc(OC)cc2)cc1 | 4591 |
| Cc1nc2ccc(C(=O)NCCCn3ccnc3)cn2c1N(C)C(=O)CCc1ccccc1 | 3585 |
| c1ccc2cc(C3OCC4(CCCC4)CO3)ccc2c1 | 2941 |
| CC(C)C(=O)N1CCCC1(C)C(=O)N(C)Cc1cccc2ccccc12 (centres undefined) | 2848 |
| CC(=O)c1c(O)cc2c3c1OC(C)(C)C1CCC(C)(CC31)O2 (centres undefined) | 2954 |
| OCCN1CCN(c2nccn3ccnc23)CC1 | 3753 |
| CCOc1ccc(Cl)cc1-c1cc(C(=O)NCc2cc(C(F)(F)F)cc(C(F)(F)F)c2)[nH]n1 | 3801 |
| O=C1NC[C@H](CCCCN2C[C@@H](Cc3ccccc3)N(CCC3CCCCC3)C(=O)C2=O)N(CCC2CCCCC2)C1=O | 5412 |
| CCOC(=O)[C@]12CCC=C1N(Cc1ccc3c(c1)OCO3)C(=O)[C@H](CC(=O)NCCCOC)C2 | 5879 |
| Cc1ccc([C@H]2C[C@H](O)[C@@H](n3cc(-c4ccc(F)cc4)nn3)CN2CC2CCCCC2)cc1 | 3134 |
| CC1(C(=O)NS(=O)(=O)c2ccc(F)cc2F)CCN1C(=O)CC(c1ccccc1)c1ccccc1 (centres undefined) | 4254 |
| CC(N)c1csc(NC(=O)c2cc(C(C)(C)C)nn2Cc2ccccc2)n1 (centres undefined) | 3552 |
| CNc1cccc(-c2ccc(N3CCN(C)CC3)nc2)n1 | 3391 |
| C[C@@H]1CCCCO[C@H](CN(C)Cc2ccc(C(F)(F)F)cc2)[C@H](C)CN([C@@H](C)CO)C(=O)c2cc(NC(=O)Cc3ccccc3)ccc2O1 | 3923 |
| CC(C)CNc1ncnc2c1ncn2[C@H]1CN(Cc2ccc(F)cc2)C[C@@H](CO)O1 | 3598 |
| O=C1NC(Cc2ccc(O)cc2)c2nc3cc(F)ccc3c(=O)n2-c2cc3ccccc3cc21 (centres undefined) | 3869 |
| CC(C)(C)c1ccc(CC(=O)N2CCC2(C)C(=O)NS(=O)(=O)c2ccc3c(c2)CCO3)cc1 (centres undefined) | 3994 |
| CC(C)C[C@H]1CN(CCCC[C@H]2CNC(=O)C(=O)N2CCc2ccccc2)C(=O)C(=O)N1CCC1CCCCC1 | 5723 |
| C(=C\c1ccc2nncn2c1)/c1ccccc1 | 4189 |
| O=S(=O)(Nc1ccc(-c2cn3c(n2)SCC3)cc1)c1cc(F)ccc1F | 3803 |
| COc1cc(CNC[C@H]2O[C@@H](n3cc(C)c(=O)[nH]c3=O)C[C@@H]2O)ccc1OCc1cccc(Cl)c1 | 3716 |
| CC(C)C[C@H]1COc2cc(N3CCN(Cc4ccccc4F)CC3)ccc2S(=O)(=O)N1 | 4156 |
| OC[C@H]1O[C@H](c2nc(-c3nc(-c4cccs4)no3)cs2)C[C@@H]1O | 2943 |
| O=C(NCc1ccccc1)C1CNCC(C(=O)NCc2ccccc2)C1 (centres undefined) | 3565 |
| CCC(O)c1cnc(OCc2ccccc2)nc1OCc1ccccc1 (centres undefined) | 4793 |
| COc1cccc(CCNC(=O)c2cc(COc3ccc(C)c(C)c3)on2)c1OC | 3604 |
| COc1ccc(-c2coc3c(C(=O)NCc4cccc(Cl)c4)cccc23)c(C)c1 | 3319 |
| CC(C)C1C(=O)N(Cc2cn(CCC3OCCCO3)nn2)CCS(=O)(=O)N1Cc1ccc(-c2ccc(Cl)cc2)cc1 (centres undefined) | 4235 |
| Cc1ccc(NC(=O)CN2CCN(C(=O)C3CC3)CC2)c(F)c1 | 2659 |
| COc1ccc(CNC(=O)c2cccc3c(-c4ccc(F)c(F)c4)coc23)cc1OC | 3720 |
| O=C1NC[C@H](CCCCN2C[C@H](Cc3ccc(O)cc3)N(CCC3CCCCC3)C(=O)C2=O)N(CCC2CCCCC2)C1=O | 5639 |
| CCOC(=O)C1=CCN(S(=O)(=O)c2ccc(C)cc2)C1c1ccc(C)cc1 (centres undefined) | 6528 |
| COc1ccc(-c2cnc3c(NC(C)=O)cc(-c4ccsc4)cn23)cc1OC | 3023 |
| O=c1oc(=S)oc2c1[C@H](c1ccc(Cl)cc1)O[C@H](C1CCCC1)C2 | 6183 |
| CCn1c(SCC(=O)NC2CC2)nc2ccccc21 | 3792 |
| CN1CCN(C(=O)c2cnc(Cc3c[nH]c4ccccc34)c(I)c2)CC1 | 3807 |
| CCCCN1C(=O)C(CC(=O)NCCCN(C)C)CC(C(=O)N(CC)CC)=C1C (centres undefined) | 3442 |
| COc1cc(-c2cc3nc(NCc4cccs4)ccn3n2)cc(OC)c1OC | 4051 |
| CC(=O)Nc1ccc(C(=O)N2CCCCC2c2cc(C(=O)NCc3ccccc3)no2)cc1 (centres undefined) | 3619 |
| O=C(NCc1ccccc1)C1c2ccccc2OCC(=O)N1CCc1ccccc1 (centres undefined) | 5233 |

(continued)
compound | Bead autofluor
O=C(CN1CCN(C(=O)CCC(=O)N2CCC(c3ccccc3)=N2)CC1)Nc1cccc(F)c1 | 3668
CC(C)CNC(=O)C1(C)CCCN1C(=O)c1cccnc1 (centres undefined) | 3513
CN(C)c1ccc(-c2csc(C(C)(O)c3ccccc3)n2)cc1 (centres undefined) | 3759
CCN(CC)C(=O)C1=C(C)N(CCC2=CCCCC2)C(=O)C(CC(=O)NC(c2ccccc2)c2ccccc2)C1 (centres undefined) | 3501
COc1ccc(NC(=O)c2cc(-c3cc(F)ccc3OCC3CCCO3)n[nH]2)c(C)c1 (centres undefined) | 3780
COc1cc(C(C)=O)ccc1OCC(=O)N1CCC(Cc2ccccc2)CC1 | 4404
CCOC(=O)[C@]12CCC=C1N(Cc1ccccc1)C(=O)[C@H](CC(=O)N1CCOCC1)C2 | 5621
COC(=O)c1cc(=O)nc(NN=C2c3ccccc3-c3ccccc32)s1 | 6037
O=C(NCc1cccc(Cl)c1)C1Cc2c(-c3cccc(F)c3)ccnc2O1 (centres undefined) | 3942
CC(=O)N1C[C@H]2CON(C)[C@H]2C[C@H]1c1cccc(-c2cc(Cl)cc(Cl)c2)c1 | 3985
O=C(/C=C/[C@H]1O[C@@H](n2cnc3c(NC(=O)c4ccccc4)ncnc32)[C@H](O)[C@@H]1O)NCC1CCCCC1 | 5286
C=CCOc1cccn2c(N(C=O)Cc3ccccc3)c(CC)nc12 | 3695
Nc1ccccc1SC(CC(=O)c1ccccc1)c1ccccc1 (centres undefined) | 3567
COc1ccc(CN2Cc3cc(N4CCCCC4)ccc3-n3nncc3C2)cc1 | 6452
COCCNC(=S)N1CCC2CC1c1cc(-c3ccc4c(c3)OCO4)ccc12 (centres undefined) | 6111
Cc1ccccc1OS(=O)(=O)c1cccc([N+](=O)[O-])c1 | 3695
Oc1ccc(C[C@@H](CN2CCCC2CN2C(=S)NC[C@@H]2Cc2ccccc2)N2C[C@H](Cc3ccccc3)N(CC3CCCCC3)C2=S)cc1 (some centres undefined) | 5994
COc1ccccc1-c1ccc2c(c1)O[C@@H](CN(C)C(=O)c1ccncc1)[C@H](C)CN([C@@H](C)CO)S2(=O)=O | 2821
C(=C\c1ccccc1)/CN1CCN(C(c2ccnc3ccccc23)c2nnnn2C2CCCCC2)CC1 (centres undefined) | 6377
CC1(C(=O)NS(=O)(=O)c2cccc(F)c2)CCN1C(=O)Cc1ccc(-c2ccccc2)cc1 (centres undefined) | 3541
O=C(Cn1cc(-c2ccccn2)nn1)NS(=O)(=O)c1cccc(OC(F)F)c1 | 2790
O=C(Nc1ccc2nc([C@H]3C[C@H](O)[C@@H](CO)O3)[nH]c2c1)NC(c1ccccc1)c1ccccc1 | 5839
COc1ccc([C@H]2N[C@]3(CCCN(Cc4ccco4)C3=O)[C@H]3C(=O)N(C)C(=O)[C@@H]23)cc1 | 2927
CCCN(C(=O)CSc1nnc(-c2ccc3c(c2)OCO3)o1)C1CCS(=O)(=O)C1 (centres undefined) | 4124
CC(C)Cn1c(SCC(=O)NC2CC2)nc2ccccc21 | 2760
O=C(/C=C/[C@H]1O[C@@H](n2cnc3c(NC(=O)c4ccccc4)ncnc32)[C@H](O)[C@@H]1O)NCc1ccccc1 | 6016
C=CCN1C(=O)/C(=C/N(C)C)S/C1=N\S(=O)(=O)c1cccs1 | 3421
Cc1ccc2nc(CN(C)C(=O)[C@H]3O[C@@H](n4ccc(=O)[nH]c4=O)[C@H](O)[C@@H]3O)[nH]c2c1 | 5697
O=C1c2cccc(-c3ccc(C(F)(F)F)cc3)c2C2CC=CCN12 (centres undefined) | 6285
COc1ccc(C(N)c2csc(Nc3cc(Oc4ccccc4)ncn3)n2)cc1 (centres undefined) | 3582
COCCNC(=O)C1(C)CCN(C(=O)c2ccc(C(F)(F)F)nc2C)C1 (centres undefined) | 2967
CCOc1ccc(S(=O)(=O)Nc2ccc(C(=O)N(CC)CC(=O)NCc3cccs3)cc2)cc1 | 3510
CCCNC(=O)C1(C)CCCN(Cc2c(C)nn(-c3ccccc3)c2C)C1 (centres undefined) | 3868
O=C(NCc1ccccc1)c1cc(C2CCCCN2S(=O)(=O)Cc2ccccc2)on1 (centres undefined) | 3758
O=C(c1cc(C2CCCCN2S(=O)(=O)c2cccs2)on1)N1CCOCC1 (centres undefined) | 3461
CC(=O)Nc1ccc(-c2ccnc3c2CC(C)(C(=O)NCCc2ccccc2)O3)cc1 (centres undefined) | 3824
COc1cc(OC)cc(C2=Cc3ccccc3C(CC(C)=O)N2c2ccc(C#CC3(O)CCCCC3)cc2)c1 (centres undefined) | 5805
COCC(=O)N(C)C[C@@H]1Oc2cc(-c3ccc(F)cc3)ccc2S(=O)(=O)N([C@H](C)CO)C[C@H]1C | 3363
FC(F)(F)c1ccccc1Cc1c(-c2ccc(Cl)cc2)nc2ccc(Cl)cn12 | 6810
O=C(Nc1ccc(N2CCOCC2)cc1)C1CCN(S(=O)(=O)c2cccc(C(F)(F)F)c2)CC1 | 2940
CCCCN1C[C@H](C)[C@@H](CC(=O)Nc2ccccc2)C1=O | 2937
C=C(C)[C@@H]1C2=CC(C(=O)OC)=C(C[C@H](C(=C)C)[C@H]3O[C@H]3C3=C[C@H]1OC3=O)O2 | 4870
CSc1ncnc2c1ncn2CCCNCC(C)c1ccccc1 (centres undefined) | 2972
O=C(NCc1ccncc1)[C@@H]1CCCN1C(=O)[C@@H]1CCCN1C(=O)c1ccccc1Cl | 5212
COc1ccccc1N1CC(C(=O)OC(C)C(=O)Nc2ccc(F)cc2)CC1=O (centres undefined) | 3832
C[C@H](CO)N1C[C@H](C)[C@@H](CN(C)S(=O)(=O)c2cccc(F)c2)OCc2cn(nn2)CCCC1=O | 3367

Given field by field: 4 of the compounds above.
molecule: CCCCN1C[C@H](C)[C@@H](CC(=O)Nc2ccccc2)C1=O
  Bead autofluor: 2937
molecule: C=C(C)[C@@H]1C2=CC(C(=O)OC)=C(C[C@H](C(=C)C)[C@H]3O[C@H]3C3=C[C@H]1OC3=O)O2
  Bead autofluor: 4870
molecule: CSc1ncnc2c1ncn2CCCNCC(C)c1ccccc1 (centres undefined)
  Bead autofluor: 2972
molecule: O=C(NCc1ccncc1)[C@@H]1CCCN1C(=O)[C@@H]1CCCN1C(=O)c1ccccc1Cl
  Bead autofluor: 5212

Another view of four compounds above.
C[C@H](CO)N1C[C@H](C)[C@@H](CN(C)S(=O)(=O)c2cccc(F)c2)OCc2cn(nn2)CCCC1=O
  Bead autofluor = 3367
O=C(NCc1ccncc1)[C@@H]1CCCN1C(=O)[C@@H]1CCCN1C(=O)c1ccccc1Cl
  Bead autofluor = 5212
CCCCN1C[C@H](C)[C@@H](CC(=O)Nc2ccccc2)C1=O
  Bead autofluor = 2937
CSc1ncnc2c1ncn2CCCNCC(C)c1ccccc1 (centres undefined)
  Bead autofluor = 2972

This is a subset; the hit share may differ from the screen's.
